Bioassay records (PubChem BioAssay)
CapD inh = blocks the Bacillus anthracis CapD enzyme. purified CapD enzyme, fluorescence intensity read-out; stronger effect = lower value; some hits fall short of the stated cut. z-score (test concentration not listed). 140,000 compounds, 0.23% hits;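 active = z-score under -4 in either of two replicates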;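 note: stock transfer was 100 nL into about 40 µL; score is relative to mean and spread of the plate; one replicate is shown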
AID504770 = E. coli YBA685 growth inhibition, screen for V. cholerae RctB inhibitors; E. coli YBA685 rctB-dependent plasmid, OD600 growth, 3 h; stronger effect = lower value; 130,000 compounds, 0.27% hits; z-score (concentration not given with the values);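 active = z-score under -2 on both plates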;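 note: wells of about 30 µL received 100 nL stock; score is relative to mean and SD of the test wells; the first replicate is given; strong numbers were not always called active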
An asterisk follows results filed as active; . = no result given.

SMILES	CapD inh	AID504770
O=C1CCCCC1Sc1nnc2n(-c3ccccc3)c(=O)c3ccccc3n12 (centres undefined)	.	0.5
O=S(=O)(Nc1ccccc1Oc1ccccc1)c1ccc(-c2ccon2)s1	-2	0.2
COc1cccc(C(=O)O/N=C/c2ccc(Sc3ccc(C)cc3)nc2)c1	3.7	.
CCCC12CN3CC(C)(CN(C1)C3c1c[nH]c3ccc(OC)cc13)C2=O (centres undefined)	-2.1	0.95
O=S(=O)(c1ccccc1)C(Cc1ccc(F)cc1)c1ccco1 (centres undefined)	-0.52	-0.85
CCOC(=O)c1c(C)n(Cc2ccccc2)c2ccc(OC(C)=O)cc12	-0.46	-0.75
CCN(CC)S(=O)(=O)c1ccc(Sc2cccc(C(F)(F)F)c2)nc1	.	0.3
CCCN(C1CCN(C)CC1)S(=O)(=O)c1ccc(NC(=O)C(c2ccccc2)c2ccccc2)cc1	-0.58	.
NS(=O)(=O)c1ccc(CNC(=O)C23CC4CC(CC(C4)C2)C3)cc1	-0.77	-0.95
COc1ccccc1-c1nc(CSc2ccccc2N)no1	-0.77	-0.95
O=C1CCCCC1C(=O)c1ccccc1 (centres undefined)	1.1	0.45
CCN(CC)c1ccc(C2(O)C(=O)c3ccccc3C2=O)cc1	-1	-0.4
CCCCCn1c(N)c(C#N)c2nc3ccccc3nc21	.	0.4
CC(=S)Nc1c(O)[nH]c2ccccc12	-0.3	0.65
CN(C)c1cccc(NC(=O)c2cccs2)c1	-0.61	-0.9
COc1cc(/C=C2\C(=O)NC(=S)N(c3ccc(C)cc3)C2=O)ccc1OCC(=O)O	-1.1	.
Cc1cc(C)n(CCCNCC(O)c2ccccc2)n1 (centres undefined)	.	0.7
CCCCCOc1ccc(C(=O)NN)cc1	0.3	.
Cc1cc(OCC(=O)NN)no1	.	0.9
Fc1ccccc1CN1CCC(CNc2nc(-c3ccccc3)no2)CC1	0.08	-0.55
CS(=O)(=O)c1ccc2c(c1)CCN2C(=O)CCC(=O)NC1CCSC1=O (centres undefined)	-0.78	.
Cc1cc2c(cc1C)N(C(=O)C1CC1)C(C)(C)c1ssc(=S)c1-2	0.21	.
O=C(COc1ccc(-c2nnco2)cc1)Nc1cc(C(F)(F)F)ccc1-n1cncn1	.	-1.1
Cc1nn(C(C)C(=O)O)c2ccccc12 (centres undefined)	-0.42	-0.6
Cc1nn(C)c(Cl)c1NC(=O)OCC(C)(C)C	-0.46	-0.85
CC(C)=CC1C(CNC(=O)OCCc2ccc(Br)cc2)C1(C)C (centres undefined)	0.3	.
COc1ccsc1CN(Cc1ccccc1)C(=O)c1ccccc1Cl	-0.12	.
Cc1ccc2oc(=O)c3cc(C(=O)NCCN4CCCCCC4)sc3c2c1	18	-0.05
Cc1c(O)ccc(C(=O)CN2CC(C)OC(C)C2)c1O (centres undefined)	.	0.75
O=c1c(=O)n(-c2cccc(Cl)c2)ccn1Cc1cccc(C(F)(F)F)c1	-0.43	-0.85

17 entries already listed, arranged by SMILES length, ascending.
SMILES	CapD inh	AID504770
Cc1cc(OCC(=O)NN)no1	.	0.9
CCCCCOc1ccc(C(=O)NN)cc1	0.3	.
CC(=S)Nc1c(O)[nH]c2ccccc12	-0.3	0.65
CN(C)c1cccc(NC(=O)c2cccs2)c1	-0.61	-0.9
Cc1cc(C)n(CCCNCC(O)c2ccccc2)n1 (centres undefined)	.	0.7
Cc1nn(C)c(Cl)c1NC(=O)OCC(C)(C)C	-0.46	-0.85
CCCCCn1c(N)c(C#N)c2nc3ccccc3nc21	.	0.4
Cc1c(O)ccc(C(=O)CN2CC(C)OC(C)C2)c1O (centres undefined)	.	0.75
COc1ccsc1CN(Cc1ccccc1)C(=O)c1ccccc1Cl	-0.12	.
CCN(CC)c1ccc(C2(O)C(=O)c3ccccc3C2=O)cc1	-1	-0.4
CC(C)=CC1C(CNC(=O)OCCc2ccc(Br)cc2)C1(C)C (centres undefined)	0.3	.
Cc1ccc2oc(=O)c3cc(C(=O)NCCN4CCCCCC4)sc3c2c1	18	-0.05
Cc1cc2c(cc1C)N(C(=O)C1CC1)C(C)(C)c1ssc(=S)c1-2	0.21	.
CS(=O)(=O)c1ccc2c(c1)CCN2C(=O)CCC(=O)NC1CCSC1=O (centres undefined)	-0.78	.
O=c1c(=O)n(-c2cccc(Cl)c2)ccn1Cc1cccc(C(F)(F)F)c1	-0.43	-0.85
O=C(COc1ccc(-c2nnco2)cc1)Nc1cc(C(F)(F)F)ccc1-n1cncn1	.	-1.1
COc1cc(/C=C2\C(=O)NC(=S)N(c3ccc(C)cc3)C2=O)ccc1OCC(=O)O	-1.1	.

Other compounds follow.
SMILES	CapD inh	AID504770
O=C(NCSc1nc2ccccc2o1)c1cc2ccccc2o1	.	-0.05
O=S(=O)(CCSc1ccccc1)c1ccccc1	0.76	0.25
O=C(Nc1ccccc1)OCCCc1ccccc1	-0.16	-0.25
N#Cc1nc(-c2ccccc2)c(-c2ccccc2)nc1C#N	1.8	.
CCOC(=O)c1ccsc1NC(=O)c1ccccc1	-0.17	1.2
COc1ccc(OC)c(S(=O)(=O)NCc2nn(-c3ccccc3)nc2C)c1	0.04	-0.8
Fc1cccc(Nc2nc(Cl)nc(Cl)n2)c1	.	-0.55
CCOC(=O)N1CCC(NC(=O)c2ccc3c(c2)N(Cc2ccc(C)cc2)CCS3)CC1	43	-0.65
COc1cc(C)c(S(=O)(=O)n2ccnc2)cc1C(C)C	.	0.05
CC1=C(C)C(=O)C(N2CCOCC2)=CC1=O	.	-1
N#Cc1cc(-c2ccc(Cl)cc2)cnc1Sc1ccccc1Cl	0.15	.
CC(=O)N1CCC(N(C2CC2)S(=O)(=O)c2ccccc2S(C)(=O)=O)CC1	-0.18	.
COc1ccc(NC(=O)Cn2cnc3sc(C(=O)Nc4cccc(Cl)c4)c(C)c3c2=O)c(OC)c1	0.18	.
CCc1ccc(NC(=O)CNC(=O)Cn2ccc3ccccc3c2=O)cc1	-0.01	-0.45
CCCCn1c(=O)nc2n(-c3ccccc3C)c3ccccc3cc-2c1=O	0.11	.
Cc1cc2nc(N3CCCC(C(F)(F)F)C3)c3ccccc3n2n1 (centres undefined)	.	-0.05
CCOC(=O)c1c(SC)nc2ccc(Cl)cc2c1Oc1ccccc1	0.03	.
CC1CCCCN1c1csc2ccccc2c1=O (centres undefined)	-3	0.1
CC(C)NCc1c[nH]c2ccccc12	0.51	-0.25
CCc1cccc2c1NC1(CCCC1)CC2C (centres undefined)	-0.98	-0.2
COc1ccc(S(=O)(=O)N(C)C(C)C(O)c2ccccc2)cc1 (centres undefined)	.	-1.5
CC(C)(C)S(=O)(=O)c1ccccc1/C=N/O	0.43	1.9
CCCC1O[C@@H]2CC3C4CCC5=CC(=O)C=CC5(C)C4[C@@H](O)CC3(C)[C@]2(C(=O)CO)O1 (some centres undefined)	-0.12	0.15
CCCCCCCCCCCCC1CCCC/C1=N/O (centres undefined)	0.74	.
Cc1cc(=O)nc2c3ccccc3n(CC(=O)NCCc3ccccc3)n12	0.38	0.25
Nc1nonc1/C(=N/O)N1CCCC1	.	1.4
CN(C(=O)CSc1nc(-c2ccccc2)cc(-c2ccco2)c1C#N)c1ccccc1	.	0.55
O=C1CC(c2ccc(I)cc2)c2ccc3ccccc3c2N1 (centres undefined)	-0.18	.
N#CCc1ccc(NC(=O)CC2(CC(=O)O)CCCC2)cc1	0.65	0.05
CCOc1ccc(Nc2nc(C)c([N+](=O)[O-])c(N(C)c3ccccc3)n2)cc1	-0.31	.
COc1ccc(N(C)Cc2ncccc2Oc2nc(OC)cc(OC)n2)cc1	0.025	.
CCC(=O)Oc1ccc2c(C)c(Cl)c(=O)oc2c1	17	-0.25
C#CCn1c(=NC(=O)c2ccccc2)sc2cc(S(N)(=O)=O)ccc21	.	0.1
O=C(c1ccccc1)N(c1ccccn1)c1ccccn1	-0.49	-0.25
Cc1nn(C)c(=O)c2noc(/C=C/c3ccc(C(F)(F)F)cc3)c12	1.5	.
COC(=O)c1sccc1NC(=O)c1cc2cccc3c2n(c1=O)CCC3	-0.44	.
O=C(NCCN1CCOCC1)c1cc2ccc3cccnc3c2[nH]1	-0.2	-0.1
Cc1nc(-c2ccccn2)n2nnnc2c1Cl	0.28	-4.4
COc1ccc(OCC(=O)N2CCN(S(C)(=O)=O)CC2)cc1	.	-0.45
C=CCn1c(=N)c(C#N)cc2c(=O)n3cccc(C)c3nc21	4.8	-0.1
CCOc1cc(/C=C2\SC(=S)N(c3c(C)n(C)n(-c4ccccc4)c3=O)C2=O)ccc1O	-1.1	.
O=C(NCCc1ccccc1)C1CCN(c2cnccn2)CC1	5.6	1.7
Cc1ccc(Cn2nc(C)c(/C=N/N3CCOCC3)c2C)cc1	.	-0.65
COc1ccc(-n2cc(C(=O)NCCOc3cccc(-n4cnnn4)c3)nn2)cc1	0.65	1.4
CC1(C)C2CCC1(CS(=O)(=O)n1cnc3ccccc31)C(=O)C2 (centres undefined)	.	0.55
O=C(CCN1C(=O)c2cccnc2Sc2ccccc21)N1CCc2ccccc21	1.1	0.05
CC(C)c1ccc2nc(Nc3nc4ccc(S(C)(=O)=O)cc4s3)sc2c1	-0.45	0.6
Cc1cccc(S(=O)(=O)NCc2cccc(C(F)(F)F)c2)c1	.	-0.5
COc1ccc(/C=C/C(=O)Nc2ccncc2)cc1OC	51	-1.4
N#Cc1ccccc1OCC(=O)Nc1ccc2c(c1)OCCO2	.	0.95
O=C(O)C12CC3CC(CC(S)(C3)C1)C2	.	-0.55
CC(C)C(=O)Nc1ccc2oc(-c3ccncc3)nc2c1	3.6	1.4
Cc1ccsc1CNn1nnnc1N	.	-0.7
O=C(COC(=O)/C=C/c1ccc(I)o1)CN1CCN(C(=O)c2ccco2)CC1	.	-0.65
CS(=O)(=O)NCc1cn2ccsc2n1	0.16	-0.35
Cc1ccc(C(=O)COC(=O)C(Cc2ccccc2)N2C(=O)C3C4C=CC(C4)C3C2=O)cc1 (centres undefined)	-0.41	.
CC1CCCC(NC(=O)CSCc2cnn(-c3ccccc3)c2-n2cccc2)C1C (centres undefined)	0.62	-0.4
CCOC(=O)C1CCCN(c2c3c(nc4cc(-c5ccc(F)cc5)nn24)CCCC3)C1 (centres undefined)	.	0.95
COC(=O)c1[nH]c2c(c1C)C(=O)CC(c1ccccc1)C2 (centres undefined)	0.28	0.05
CN=c1scc(-c2ccc(OC)cc2)n1/N=C(\C)c1cccnc1	.	-0.2

More results follow.
SMILES	CapD inh	AID504770
Cc1occc1-c1nnc(SC(C)C(=O)NC(C)c2ccc(Cl)cc2Cl)n1C (centres undefined)	.	-0.2
Cc1ccc(S(=O)(=O)N2CCCC3(CCCCC3)C2)cc1	-0.21	-1
Cc1nc(N(C)c2ccc(C(C)C)cc2)c2c(C)c(C(=O)N3CCC4(CC3)OCCO4)sc2n1	-0.32	.
NCc1ccoc1C(=O)O	.	1.1
O=C(O)CSC1=NCCS1	.	0.5
COc1ccc(S(=O)(=O)n2ccnc2)cc1C	.	0.35
CCCCN(Cc1ccco1)C(=O)c1cc2c(=O)n(CC)c3ccccc3c2s1	5.5	0.6
CC(C)CCOCC1OC2OC(C)(C)OC2C2OC(C)(C)OC12 (centres undefined)	-0.095	.
Cc1ccc(OCC(=O)Nc2ccc(S(=O)(=O)N3CCCC3)cc2)cc1	-0.095	0.2
COc1ccc(C(=O)NNC(=O)c2ccc(-c3ccccn3)s2)cc1OC	0.48	.
CCOc1ccc(OCCCC(=O)O)cc1	1	-0.55
O=C(CN1C2=NCCN2c2ccccc21)c1ccc(Cl)cc1	-0.23	.
O=C(C(Cc1ccccc1)N1C(=O)C2C3C=CC(C3)C2C1=O)N1CCOCC1 (centres undefined)	-0.51	1.1
Cc1ccc2c(c1)N(C(=O)CCC(=O)NC1CCCC1)CCO2	0.63	0.2
c1ccc(CN2CCN(Cn3nnc4ccccc43)CC2)cc1	-0.66	0.05
O=C(NCCc1c[nH]c2ccccc12)c1cccc(-n2c(=S)[nH]c3ccccc3c2=O)c1	0.085	.
O=C(CCc1c[nH]c2ccccc12)N/N=C/c1ccccc1O	0.49	-0.45
CCOC(=O)Nc1cccn(Cc2ccccc2F)c1=O	24	0.25
COc1ccc(CC(=O)N2c3ccccc3Sc3ccccc32)cc1OC	0.3	-0.4
Clc1ccc2oc(-c3ccccc3)nc2c1	.	-0.15
COc1ccc(OCCC(=O)OCc2c(C)noc2C)cc1	.	-0.45
CCCC(=O)c1cc2cc([N+](=O)[O-])ccc2oc1=O	-0.42	.
CCOC(=O)c1ccc(N2N=C(C)/C(=C\c3ccc(-c4ccc(Cl)c(C(=O)O)c4)o3)C2=O)cc1	-0.18	.
O=C1c2ccccc2S(=O)(=O)N1CC(O)Cn1c2ccccc2c2ccccc21 (centres undefined)	-0.49	1
O=C(NC1CCCC1)c1cc(=O)[nH]c2ccc(Br)cc12	1.3	0.35
CCc1cc(-c2[nH]ncc2Oc2ccccc2)c(O)cc1OC	-0.69	-1
COC(=O)c1cc(NC(=O)c2ccccc2)c(=O)oc1/C=C/Nc1nccs1	5.8	.
COc1cc(C2N3CC4(C)CN2CC(C)(C3)C4O)ccc1O (centres undefined)	0.43	.
O=C(c1ccc(COc2c(F)c(F)c(F)c(F)c2F)o1)N1CCOCC1	-0.18	0.8
COc1ccc(COCC(O)CS(=O)(=O)Cc2ccc(C)cc2)cc1 (centres undefined)	0.66	0.15
CC12COC3(C(=O)Nc4ccccc4)CC1CCC32C (centres undefined)	.	0.05
O=S(=O)(NC1CCCCC1NS(=O)(=O)c1ccc(F)cc1)c1ccc(F)cc1 (centres undefined)	-0.45	0.2
O=C(NCCCN1CCCC1)c1ccc(N2CCCC2=O)cc1	0.18	0.1
CCN(CC)C(=O)C12CCC(C)(C(=O)C1)C2(C)C (centres undefined)	0.77	-0.3
CO/N=C/c1ccc(N2CCN(C(=O)c3cccs3)CC2)c([N+](=O)[O-])c1	-0.02	.
